# Source: PubChem
# Rango dissoc inh – qHTS Assay for Inhibitors of RanGTP induced Rango (Ran-regulated importin-beta cargo) - Importin beta complex dissociation; actives 0.071% (n = 340,000); AID 540253, 2011; Potency, µM (series often up to 46.1 µM), inactives show at the highest dose activity change, negative = inhibition; Biochemical FRET Rango-importin beta, RanGTP-induced dissociation; Snurportin-1 (Homo sapiens) + GTP-binding nuclear protein Ran (Homo sapiens) + Importin …; active means falling FRET ratio curve, often poorly fitted, with flat reads before Ran was added; inconclusive means other falling curves, or compound fluorescence or quenching; inactive means flat or rising ratio curve;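 also: potency is read from the fitted curve at half-maximal effect; % of control where 0% means no effect; nearly all actives have a fitted effect of over 45% in size; -100% = wells without RanGTP and RCC1; the record marks most hits as doubtful in a second field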
#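 Quantitative HTS using a FRET biosensor: 0.1 uM Rango, 0.25 uM importin beta, 0.6 uM Ran, 2 mM GTP, 0.2 uM RCC1 final, PBS with DTT, Tween-20 and BSA. Post-read taken 45 min after Ran addition.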
# GLA inh pH 4.5 – qHTS Assay for Inhibitors of Human alpha-Galactosidase at pH 4.5. Alpha-galactosidase A (Homo sapiens), P06280. activity change, negative = inhibition, % at 105 µM. purified enzyme, 4-MU-alpha-Gal fluorescence, pH 4.5. 230,000 tested, under 10 active; inconclusive = small, poorly fitted or top-dose-only inhibition, or a rising curve; inactive = flat fitted curve, though single readings scatter; no compound was filed as active;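 also: 0% = full activity with enzyme and -100% = basal without enzyme; dose as in the result columns while the protocol names 77 µM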
# Rango-impB inh – qHTS Assay for Inhibitors of Rango (Ran-regulated importin-beta cargo) - Importin beta complex formation. actives 0.031% (n = 340,000). Importin subunit beta-1 (Homo sapiens), Q14974. Potency, µM (doses to about 92.2 µM), without a hit: top-dose inhibition of complex formation. AID 540263, 2011. Rango CFP/YFP FRET sensor + importin beta, 45 min; active = rising FRET ratio curve, often small or poorly fitted; inconclusive = mostly compound fluorescence or quenching in the first reads; inactive = flat curves in all reads;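 also: potency is read from the fitted curve at half-maximal effect; 0% = DMSO wells and 100% = buffer wells lacking importin beta; nearly all actives have a fitted effect of over 15% in size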
# Target sequence (Q14974 whole entry, looked up): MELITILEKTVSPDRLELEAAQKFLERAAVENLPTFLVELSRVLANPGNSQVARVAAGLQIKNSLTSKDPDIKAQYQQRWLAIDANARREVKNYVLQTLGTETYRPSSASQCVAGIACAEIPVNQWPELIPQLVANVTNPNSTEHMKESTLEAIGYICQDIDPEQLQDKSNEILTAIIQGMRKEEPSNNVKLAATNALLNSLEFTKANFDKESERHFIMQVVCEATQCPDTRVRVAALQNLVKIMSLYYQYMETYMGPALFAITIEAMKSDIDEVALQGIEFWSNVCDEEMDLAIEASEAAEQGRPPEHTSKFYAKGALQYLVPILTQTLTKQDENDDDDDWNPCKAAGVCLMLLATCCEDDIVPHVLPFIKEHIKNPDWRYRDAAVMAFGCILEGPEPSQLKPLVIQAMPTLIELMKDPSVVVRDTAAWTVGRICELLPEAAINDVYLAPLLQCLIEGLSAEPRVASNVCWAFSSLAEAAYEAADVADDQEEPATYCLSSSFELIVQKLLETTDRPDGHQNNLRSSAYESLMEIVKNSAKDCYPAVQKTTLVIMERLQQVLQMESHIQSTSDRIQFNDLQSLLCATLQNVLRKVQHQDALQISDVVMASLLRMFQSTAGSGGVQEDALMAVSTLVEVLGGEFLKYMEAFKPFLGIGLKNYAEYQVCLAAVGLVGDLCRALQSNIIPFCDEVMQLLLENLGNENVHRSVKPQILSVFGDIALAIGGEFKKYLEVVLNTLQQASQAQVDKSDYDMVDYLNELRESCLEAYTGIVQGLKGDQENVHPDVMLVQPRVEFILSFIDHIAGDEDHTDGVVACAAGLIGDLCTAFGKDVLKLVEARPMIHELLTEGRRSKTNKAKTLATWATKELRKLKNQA
#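 FRET biosensor Rango (snurportin 1 IBB between N-terminal EYFP and C-terminal Cerulean), 50 nM in PBS/1 mM DTT/0.02% Tween-20/0.1% BSA, preincubated 5 min RT with compound; 0.125 microM importin beta added, 45 min RT, CFP/YFP FRET ratio read.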
# miR-21 FLuc – qHTS Assay for Modulators of miRNAs and/orActivators of miR-21 | HeLa miR-21 FLuc reporter, luciferase, 48 h | Potency, µM (titrated, usually from 38.3 µM), inactives show at the top dose reporter change, positive = more light | 340,000 tested, under 10 active; active = well fitted rising curve with a large enough effect; inconclusive = small, poorly fitted or top-dose-only effect; inactive = no such curve, though single readings can be large or run the other way;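 also: % of control where 0% means no effect; miR-21 action dims this reporter so a rising signal means less miR-21 action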
#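 HeLa miR-21-FLuc reporter line, endogenous miR-21; 2000 cells/well in DMEM/10% FBS; compound titration up to ~40uM final, 48 h, 37 degree Celsius; luciferase detection reagent, 15 min lysis, CCD luminescence.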
# The depositor's hits bear a star; ? = inconclusive; nt = no result given; & = joins results of further samples. This is a subset; rates above refer to the full screens.
# Each structure is followed by: Rango dissoc inh	GLA inh pH 4.5	Rango-impB inh	miR-21 FLuc
1. CS(=O)(=O)c1ccc(Cl)c(NC(=O)CSc2nc3ccccc3c(=O)n2CCCN2CCOCC2)c1
    1%	-2	3.7%	-5%
2. Cc1cc(SCC(=O)c2ccccc2)n2ncc(-c3ccccc3)c2n1
    -4%	-2	-0.4%	6%
3. COc1ccc(CCn2c(-c3cccc([N+](=O)[O-])c3)nc3nc4ccccc4nc32)cc1
    8%	nt	-4.0%	nt
4. c1ccn2c(Cc3nnc4ccccn34)nnc2c1
    -18%	-3	-0.5%	-2%
5. Cc1sc2ncn(CC(=O)N3CCN(c4ccccn4)CC3)c(=O)c2c1S(=O)(=O)N1CCC(C)CC1
    11%	nt	10%	-1%
6. O=c1oc2ccccc2nc1/C=C(O)/C=C/c1ccc(F)cc1
    ?	-1	?	-28%
7. CCn1c(SCc2nc3ccccc3s2)nnc1-c1ccccc1
    -7%	-5	-2.6%	-62%
8. O=C(Oc1cccc2ccccc12)c1ccco1
    -9%	-2	3.9%	1%
9. CCCn1c(N2CCN(Cc3ccc(Cl)cc3)CC2)nc2ccccc21
    6%	-24	-0.7%	16%
10. O=C(COC(=O)C12CC3CC(CC(Br)(C3)C1)C2)Nc1ccc2[nH]c(=O)[nH]c2c1
    -3%	nt	-2.6%	nt
11. O=C(COC(=O)c1ccc(O)cc1O)NNC(=O)c1cccs1
    -8%	nt	-0.5%	nt
12. COC(=O)c1ccc(NS(=O)(=O)c2ccc(OC)cc2)cc1
    6%	-3	1.0%	-13%
13. COc1ccc(NC(=S)N2CCC(C(=O)c3ccc(F)cc3)CC2)c(OC)c1
    18%	5	4.1%	0%
14. O=C(c1ccc(COc2ccccc2Cl)o1)N1N=C(C(F)F)CC1(O)C(F)F (centres undefined)
    16%	6	1.2%	-12%
15. Clc1ccccc1SCc1nc2ccccc2[nH]1
    0%	-8	?	-63%
16. Cc1cc(NC(=O)COC(=O)c2cc(S(=O)(=O)N(C)c3ccccc3)ccc2Cl)no1
    -1%	-3	-1.5%	5%
17. Cc1c(Cl)cccc1NC(=O)CSc1ncnc2c1cnn2CCc1ccccc1
    -13%	1	-9.1%	-3%
18. CCC(=O)NNC(=O)CCC(=O)Nc1ccc(C)cc1C
    2%	-5	0.9%	0%
19. NC(=O)C1CCN(c2nc(-c3ccccc3F)cs2)CC1
    -2%	nt	?	nt
20. CC(=O)c1ccc(NC(=O)C2CCCNC2=O)cc1 (centres undefined)
    1%	-5	-0.1%	-6%
21. Nc1ccc(N=Nc2ccc(N)cc2)cc1
    -10%	-7	-0.6%	1%
22. CC1CN(CCCCOc2ccc(F)cc2)CC(C)O1 (centres undefined)
    -15%	6	1.7%	-1%
23. Cc1ccc(S(=O)(=O)N(Cc2ccccc2F)C(=O)N2CCN(C)CC2)cc1
    9%	nt	3.6%	nt
24. Cc1ccc(-c2nc3ncccn3c2NC2CCCC2)o1
    ?	-7	?	0%
25. Cc1nn(Cc2ccc(Cl)cc2)c2sc(C(=O)OCC(N)=O)cc12
    3%	-1	-3.1%	-14%
26. O=C(Nc1ccc2c(c1)OCO2)NC1(C(F)(F)F)Oc2ccccc2O1
    -16%	0	?	-27%
27. C[C@H]1CN([C@@H](C)CO)C(=O)c2cc(NC(=O)C3CCCCC3)ccc2O[C@H]1CN(C)S(=O)(=O)c1ccccc1
    -1%	nt	-2.5%	nt
28. COc1cc(C2SCC(=O)N2Cc2ccccc2)cc(OC)c1OC (centres undefined)
    20%	nt	-3.4%	-2%
29. Fc1ccc(-c2cnc3n2CCCCC3)cc1
    5%	4	-2.0%	-3%
30. C[C@@H]1CN([C@@H](C)CO)C(=O)c2cccc(NC(=O)c3ccncc3)c2O[C@@H]1CN(C)Cc1ccc(-c2ccccc2)cc1
    -9%	nt	-3.0%	nt
31. CCOC(=O)c1c(/N=C/C2C(=O)CCCC2=O)sc(C)c1C
    ?	15	?	-4%
32. COc1ccc(NC(=O)/C(=C/c2ccc3c(c2)OCO3)NC(C)=O)cc1
    38%	6	4.2%	-25%
33. Cc1cccc(C)c1NC(=O)CSc1nc2ccccc2c(=O)[nH]1
    8%	-1	1.6%	-1%
34. COc1cccc(C2C(C#N)=C(N)Oc3cc(N)ccc32)c1OC (centres undefined)
    ?	-6	?	-3%
35. CCCCn1c(N)c(N(CCC(C)C)C(=O)Cc2ccc(S(=O)(=O)N3CCOCC3)s2)c(=O)[nH]c1=O
    -11%	nt	-1.9%	nt
36. Cc1cccc(C(=O)N2CCc3c([nH]c4ccccc34)C2CC(C)C)n1 (centres undefined)
    -27%	-14	?	-42%
37. O=C(NCCCN1CCCC1)c1cc(Sc2ccc(F)cc2)nc2ccccc12
    9%	2	0.4%	3%
38. CCCCn1c(-c2ccsc2)nc2c1c(=O)[nH]c(=O)n2CCC
    -16%	-1	?	-7%
39. CCCCN1C(=N)N([C@@H](CCC)CN2CCC[C@H]2CN2C(N)=NC[C@H]2CC(C)C)C[C@H]1Cc1ccccc1
    -9%	nt	0.5%	nt
40. CCCOC(=O)C1=C(C)NC2=C(C(=O)C(C(=O)OC)C(C)C2)C1c1ccc(N(C)C)cc1 (centres undefined)
    -12%	-26	?	0%
41. Cc1c(C(=O)N(C)Cc2ccccc2)oc2c(Cl)cccc12
    3%	nt	-4.2%	-15%
42. CCN(CC(=O)Nc1c(F)cccc1F)C(=O)CCCc1nc2ccccc2c(=O)[nH]1
    19%	nt	-1.9%	nt
43. CCCC(NC(=O)COc1cc2c(c3oc(=O)c(C)c(C)c13)CCC(C)(C)O2)C(=O)O (centres undefined)
    0%	nt	-1.4%	-1%
44. CCc1ccc2[nH]c(=O)c(CN(Cc3ccc(OC)cc3)Cc3nnnn3CCOC)cc2c1
    -12%	3	-3.3%	-8%
45. CC(C)Oc1ccc(NC(=O)C2CCCNC2=O)cc1 (centres undefined)
    1%	1	-0.9%	-11%
46. CCN(CC)CCNC(=O)CNC(=S)N(CCCN1CCOCC1)Cc1cccs1
    25%	3	4.5%	3%
47. COCCNC(=O)[C@@H]1CSC2c3ccc(OC)c(OC)c3C(=O)N21 (some centres undefined)
    -8%	nt	-0.7%	-2%
48. O=C(N/C(=C/c1ccc(Br)cc1)C(=O)N1CCCC1)c1cccs1
    2%	-2	11%	3%
49. CC1Cc2ccccc2N1C(=O)CSC1=NCCS1 (centres undefined)
    4%	2	0.3%	-16%
50. COc1cc(C)ccc1OCCOc1c(C)cc(Cl)cc1Cl
    6%	-5	7.0%	-16%
51. O=c1c2ccccc2ncn1-c1cccc(Br)c1
    11%	nt	-2.2%	-14%
52. CCc1nn(CC(=O)NCCCN2CCN(C)CC2)c(=O)c2cc3occc3n12
    0%	nt	-3.5%	-6%&-8%
53. COc1cccc(-c2nc3n(n2)C(c2ccccc2Cl)C(C(N)=O)=C(C)N3)c1 (centres undefined)
    ?	-2	0.0%	-1%
54. Fc1ccccc1CSc1nnc2ccc(-c3ccncc3)nn12
    -14%	8	1.7%	-28%
55. Cc1ccc(NC(=O)CN(C)CC(=O)Nc2ccccc2C#N)cc1
    3%	7	-3.3%	-10%
56. COc1nnc(-c2ccc(N3CCCCC3)c(N)c2)c2ccccc12
    8%	nt	-0.2%	nt
57. O=S1(=O)[C@H]2C[C@@H]3C=C[C@]2(CN1Cc1ccc(C(F)(F)F)cc1)O3
    1%	9	-0.1%	-5%
58. CC(C)(C)n1nnnc1C(c1cccs1)N1CCCC2(CCCCC2)C1 (centres undefined)
    1%	-4	-2.7%	-1%
59. CCc1nnc(-n2nc(C)cc2-c2ccccc2)n1N
    4%	0	0.8%	-11%
60. CS(=O)(=O)N(CC(=O)Nc1ccc(Br)cc1F)C1CCCCC1
    6%	nt	3.1%	0%

# One compound at a time (already shown). Screens in order: Rango dissoc inh, GLA inh pH 4.5, Rango-impB inh, miR-21 FLuc
# CCc1nn(CC(=O)NCCCN2CCN(C)CC2)c(=O)c2cc3occc3n12 across the screens: 0%, nt, -3.5%, -6%&-8%
# Cc1ccc(NC(=O)CN(C)CC(=O)Nc2ccccc2C#N)cc1 across the screens: 3%, 7, -3.3%, -10%
# Cc1c(C(=O)N(C)Cc2ccccc2)oc2c(Cl)cccc12 across the screens: 3%, nt, -4.2%, -15%
# COc1cc(C)ccc1OCCOc1c(C)cc(Cl)cc1Cl across the screens: 6%, -5, 7.0%, -16%

# Following part:
# Each structure is followed by: Rango dissoc inh	GLA inh pH 4.5	Rango-impB inh	miR-21 FLuc
61. COc1ccc(Nc2ncnc3sccc23)cc1
    ?	nt	?	-51%
62. CCN(CC(=O)Nc1ccc(OC)cc1)C(=O)CSCC(=O)Nc1ccc(C)cc1
    10%	nt	2.3%	1%
63. Cc1c(NC(=O)c2cc(-c3ccccc3O)on2)c(=O)n(-c2ccccc2)n1C
    -8%	-2	2.6%	-1%&2%
64. CCOC(=O)Cn1c2c(c(=N)c3c1CCC3)CCC2
    1%	0	4.2%	9%
65. COc1ccccc1Nc1nc(N)nc(CSCCO)n1
    6%	-1	0.8%	-4%
66. COc1ccc(NC(=O)N2CCC(n3cnc4ccccc43)CC2)cc1
    -2%	1	1.4%	-5%
67. CC(=O)c1ccc(OCCCC(=O)Nc2cccc(S(=O)(=O)N3CCOCC3)c2)cc1
    -7%	nt	2.2%	nt
68. COc1ccc(CCNc2cn[nH]c(=O)c2Cl)cc1OC
    -8%	3	-1.0%	-13%
69. COc1cc(C(=O)OCC(=O)N(CC(C)C)C2CCS(=O)(=O)C2)ccc1OCC(C)C (centres undefined)
    7%	nt	-3.2%	nt
70. O=C(CSCc1ccc(F)cc1)NC1CCCC1
    10%	3	-4.0%	-36%
71. COc1cccc(C2=NOC(C(=O)Nc3cccc(C(C)=O)c3)C2)c1 (centres undefined)
    -10%	-21	3.4%	-7%
72. COc1cccc(N(C(=O)c2snc(C(N)=O)c2N)C(C(=O)NCC2CCCO2)c2ccc(F)cc2)c1 (centres undefined)
    -7%	nt	-7.0%	-1%
73. O=C(CSc1nnc(CN2CCOCC2)n1-c1ccc(Cl)cc1)Nc1ccc2c(c1)OCO2
    1%	3	0.2%	-6%
74. N=C1S/C(=C\c2ccccc2)C(=O)N1c1ccc(F)cc1
    -13%	2	10%	-8%
75. Cn1c(=NC(=O)c2ccc3c(c2)OCCO3)sc2cc(S(C)(=O)=O)ccc21
    25%	-1	-4.5%	-9%&-12%
76. COC(=O)C1=C(C)N(C)C(=S)NC1c1cc(OC)ccc1OC (centres undefined)
    -5%	3	0.2%	0%
77. O=C(CCCSc1nc2ccccc2[nH]1)NC1CCCCC1
    5%	-2	-0.2%	-8%
78. COc1ccc(CCN(C)C(=O)CNC(=O)c2ccc3c(c2)OCO3)cc1OC
    5%	nt	-0.3%	-16%
79. O=C1CS/C(=N/N=C/c2ccco2)N1Cc1ccc(F)cc1
    -16%	-7	0.2%	-7%
80. O=C(Cc1cccs1)Nc1nnc(-c2ccc(F)cc2)s1
    14%	4	2.5%	-29%
81. CCC1CCC(N2CCN(c3ccccc3F)CC2)CC1 (centres undefined)
    -8%	nt	0.8%	-1%
82. CCN(CC)CCCNC(=O)CCC(=O)Nc1ccc2nc(N3CCCCC3)cc(C)c2c1
    -3%	?	?	-46%
83. CCS(=O)(=O)c1nc2ccccc2n1Cc1ccccc1Cl
    4%	-4	-2.4%	2%
84. Cc1ccc(-n2c(CNc3ccc(C)c(Cl)c3)n[nH]c2=S)cc1
    -17%	10	-2.2%	-9%
85. CN=C1S/C(=C/c2cn(CC(=O)OC)c3ccccc23)C(=O)N1C
    -14%	-13	-0.2%	0%
86. O=C(O)c1cc(N2CCCCC2)ccn1
    -4%	nt	-1.1%	nt
87. CCCCN(C)CCNC(=O)Cn1c(=O)sc2ccccc21
    -1%	1	2.0%	1%
